# Screening data: PubChem, PCMD
# Mtb RmlCD inh: M. tuberculosis RmlC/RmlD coupled enzyme inhibitors, primary screen, biochemical, compound mixtures, 384-well, from 1536-well plates; RmlC+RmlD coupled enzyme assay, percent inhibition; primary screen in compound mixtures; 160,000 compounds, 0.03% hits; AID 1533, 2009; inhibition, % at 3.6 µM; dTDP-4-dehydrorhamnose reductase (Mycobacterium tuberculosis (strain ATCC 25618 / H37Rv)) …; in the data active = inhibition mostly above about 34%, no sharp cut-off; only retested compounds are shown here; note: some results filed as inactive read as strong as hits
# Target sequence (P9WH09 whole entry, looked up): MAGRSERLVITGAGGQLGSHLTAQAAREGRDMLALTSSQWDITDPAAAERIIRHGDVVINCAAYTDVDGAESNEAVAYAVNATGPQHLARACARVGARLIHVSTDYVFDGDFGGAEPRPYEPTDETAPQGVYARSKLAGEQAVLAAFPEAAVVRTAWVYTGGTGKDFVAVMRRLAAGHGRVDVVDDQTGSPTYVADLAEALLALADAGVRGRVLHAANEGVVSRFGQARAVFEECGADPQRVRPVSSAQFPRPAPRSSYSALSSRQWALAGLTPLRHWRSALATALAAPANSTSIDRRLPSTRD
# Target sequence (P9WH11 whole entry, looked up): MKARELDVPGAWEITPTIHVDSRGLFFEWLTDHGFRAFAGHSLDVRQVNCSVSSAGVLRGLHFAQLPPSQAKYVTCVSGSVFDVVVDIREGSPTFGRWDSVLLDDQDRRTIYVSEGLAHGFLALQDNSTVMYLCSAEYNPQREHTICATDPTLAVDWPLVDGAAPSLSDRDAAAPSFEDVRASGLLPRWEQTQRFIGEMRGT
# Mtb RmlCD inh retest: also measured in Mtb RmlCD inh; calls as there; inhibition, %; measured here: mean retest inhibition;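 single compounds in two wells; values far above 100% likely come from compound fluorescence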
# * marks the source's active call; other numbers are inactive results.
SMILES,Mtb RmlCD inh,Mtb RmlCD inh retest
CC[n+]1c(C)n(-c2ccccc2)c2ccc(NC(C)=O)cc21,39,-4
O=C1[C@@H]2C(c3ccc(F)cc3)=NO[C@@H]2C(=O)N1Cc1ccccc1,70,10
CCCCCCCCCCCCS(=O)(=O)CCC(=O)O,48,4
CC(C)Nc1nc(NC(C)C)nc(Nn2cnnc2)n1,76,-3
Cc1ccc2nc(N/C(N)=N/S(=O)(=O)c3ccc([N+](=O)[O-])cc3)nc(C)c2c1,31,-7
CC(=O)NCCc1nc2cc(NC(=O)c3cccs3)ccc2n1C,53,0
O=c1oc(-c2ccco2)nc2sc3c(c12)CCCCC3,31,2
CC1(c2ccccc2)CC(C)(C)N2C(=O)/C(=C3\SC(=S)NC3=O)c3cccc1c32 (stereo not drawn),89,5
Clc1ccc(C(c2ccccc2)N2CCN(c3ccccn3)CC2)cc1 (stereo not drawn),40,-19
COc1cc(CNc2ccc(CNc3ncn[nH]3)cc2)cc(Cl)c1OCc1ccccc1,77,11
O=C(NC(=S)N1CCN(c2ccc(Cl)cc2[N+](=O)[O-])CC1)c1cccs1,52,29
CNC(=O)C1CC(=O)N(Cc2ccccc2)C(=Nc2ccc(OC)cc2)S1 (stereo not drawn),58,6
CCN(CC)C(=O)/C(=C\c1ccc2c(c1)OCO2)NC(=O)c1ccc(Br)cc1,100,2
CCOC(=O)C1(C)/C(=N/Nc2ccc(S(N)(=O)=O)cc2)C(=O)C(=O)N1c1ccccc1 (stereo not drawn),48,13
Cc1ccc(Sc2nc3ccc(C)cn3c(=O)c2/C=N/O)cc1,43,8
Cc1cc(C(=O)OCC(=O)c2ccc(Cl)c([N+](=O)[O-])c2)c2cccc(C)c2n1,59,-25
O=c1nc(/C=C/c2ccc(O)c(O)c2)oc2ccccc12,82,-10
COc1cc(C(=O)NCC(c2cccnc2)N2CCN(c3ccc(F)cc3)CC2)cc(OC)c1OC (stereo not drawn),110,-4
O=C1OCc2cc(N=Nc3c(O)[nH]c(=O)[nH]c3=O)ccc21,33,1
CC(C)=CC1C=C(C)C(C)C2C(=O)NNC(=O)C12 (stereo not drawn),90,-8
CN(C)S(=O)(=O)c1cccc(NC(=O)COC(=O)/C=C/c2ccc(Br)o2)c1,33,-3
O=C(O)c1ccccc1-c1ccccc1C(=O)Nc1nccs1,39,-14
NC(CC(=O)O)C1CCCCC1 (stereo not drawn),44,-14
COc1ccccc1N=Cc1c(O)c2ccccc2oc1=O,31,-3
Cc1ccc(N2CS(=O)(=O)/C(=C/N(C)C)C2=O)cc1,37,3
Fc1ccc(-n2c(-c3ccc4c(c3)OCO4)n[nH]c2=S)cc1Cl,79,-3
COc1cccc(NC(=S)N/N=C2/CCCCc3ccccc32)c1,31,-4
C/C(=N\NC(=S)NCc1ccccc1)c1ccccc1F,89,-18
Nc1nc(=S)[nH]c2c1C1(CCCCC1)Cc1ccccc1-2,31,-2
Cc1nn(-c2ncc(C(F)(F)F)cc2Cl)c(=O)n1-c1ccccc1F,61,9
Cc1ccc(NC(=O)c2cc3cccc([N+](=O)[O-])c3[nH]2)cc1,32,-4
O=C1CC(c2ccc(Cl)cc2)SC(N(c2ccccc2)c2ccccc2)=N1 (stereo not drawn),33,2
N/C(=N\N=C\c1ccc([N+](=O)[O-])cc1)c1nonc1N,85,-13
O=C(Nc1nccs1)c1ccc(N2C(=O)[C@@H]3[C@H](C2=O)[C@H]2C=C[C@@H]3C2)cc1,37,-9
CCc1nnc(NC(=O)c2cccc(C(=O)Nc3nnc(CC)s3)n2)s1,99,-16
Clc1ccc(C[n+]2cc(-c3ccccc3)n3c2CCC3)cc1Cl,39,3
N#CCC(=O)Nc1ccc(C(=O)NCc2ccccn2)cc1,32,-17
COc1ccc2cc3cc(C(=O)NCCN4CCN(c5ccccc5F)CC4)oc3nc2c1,51,56
CC1(C)CC(CCN)(Cc2ccccc2Cl)CCO1 (stereo not drawn),36,6
CC1(C)CC(CCNC(=O)CCl)(c2ccccc2)CCO1 (stereo not drawn),49,-12
COc1cccc(OC)c1C(=O)Nc1nc2ccc(S(C)(=O)=O)cc2s1,40,-1
Cn1c(O)c(/C=N/N2CCOCC2)c(=O)n(-c2ccccc2)c1=S,36,-13
CCSc1ncccc1C(=O)N[C@@H](CCSC)C(=O)OC,66,9
O=C(NCCc1ccc(Cl)cc1)c1cc(-c2ccncc2)nc2ccccc12,42,-24
CCC1CCCCN1C(=O)CSc1nnc(CNC(=O)c2ccco2)o1 (stereo not drawn),63,-14
O=C(/C=C/c1ccccc1)NCC(=O)N/N=C/c1ccccc1[N+](=O)[O-],44,15
CCc1ccccc1N(C(C)=O)c1nc(CN=C=S)cs1,58,-1
C#CCOc1ccccc1C(N)=O,58,-5

# One compound at a time, from the list above.
# Shown for CC1(C)CC(CCN)(Cc2ccccc2Cl)CCO1 (stereo not drawn) → Mtb RmlCD inh = 36; Mtb RmlCD inh retest = 6
# Shown for O=C(NCCc1ccc(Cl)cc1)c1cc(-c2ccncc2)nc2ccccc12 → Mtb RmlCD inh = 42; Mtb RmlCD inh retest = -24

# Next results:
SMILES,Mtb RmlCD inh,Mtb RmlCD inh retest
COc1cc2c(cc1OC)CN(c1nc(-c3cccnc3)nc3ccccc13)CC2,50,-3
COc1ccc(N=Cc2c(O)n(Cc3ccccc3)c(=S)[nH]c2=O)c(OC)c1,89,-10
CC(C)(C)NC(=O)c1ccccc1NC(=O)C1CCCO1 (stereo not drawn),40,-5
COc1ccc(NS(=O)(=O)c2cccc(NC(=O)c3ccc(S(=O)(=O)N4CCCCCC4)cc3)c2)cc1,31,3
CCc1ccccc1NC(=O)CC1S/C(=N\c2nccs2)N(CC)C1=O (stereo not drawn),77,-18
CSc1nc2cc(C)nn2c(-c2ccccc2Cl)c1C#N,91,-13
c1ccc2c(N3CCCCC3)nc(N3CCCCC3)nc2c1,73,-35
COc1cc(C(=O)NC(=S)Nc2ccc(N3CCCC3)cc2)cc(OC)c1OC,43,1
Cc1ccc(C(=O)N[C@H](C(=O)OCc2cc(=O)n3c(n2)sc2ccccc23)C(C)C)cc1,32,-2
CCOC(=O)C1=C(C)N(C)C(=S)N(C)C1c1ccc(OC)cc1 (stereo not drawn),35,-7
CC(=O)Nc1ccc(S(=O)(=O)N(CCCN2CCOCC2)Cc2cccs2)cc1,63,-14
Cc1ccc(N=C2NC(=O)C(CC(=O)NCc3ccccc3)S2)cc1C (stereo not drawn),75,-2

# Of the compounds above, 12 contain a Cl atom:
SMILES,Mtb RmlCD inh,Mtb RmlCD inh retest
Clc1ccc(C(c2ccccc2)N2CCN(c3ccccn3)CC2)cc1 (stereo not drawn),40,-19
COc1cc(CNc2ccc(CNc3ncn[nH]3)cc2)cc(Cl)c1OCc1ccccc1,77,11
O=C(NC(=S)N1CCN(c2ccc(Cl)cc2[N+](=O)[O-])CC1)c1cccs1,52,29
Cc1cc(C(=O)OCC(=O)c2ccc(Cl)c([N+](=O)[O-])c2)c2cccc(C)c2n1,59,-25
Fc1ccc(-n2c(-c3ccc4c(c3)OCO4)n[nH]c2=S)cc1Cl,79,-3
Cc1nn(-c2ncc(C(F)(F)F)cc2Cl)c(=O)n1-c1ccccc1F,61,9
O=C1CC(c2ccc(Cl)cc2)SC(N(c2ccccc2)c2ccccc2)=N1 (stereo not drawn),33,2
Clc1ccc(C[n+]2cc(-c3ccccc3)n3c2CCC3)cc1Cl,39,3
CC1(C)CC(CCN)(Cc2ccccc2Cl)CCO1 (stereo not drawn),36,6
CC1(C)CC(CCNC(=O)CCl)(c2ccccc2)CCO1 (stereo not drawn),49,-12
O=C(NCCc1ccc(Cl)cc1)c1cc(-c2ccncc2)nc2ccccc12,42,-24
CSc1nc2cc(C)nn2c(-c2ccccc2Cl)c1C#N,91,-13

# The list continues.
SMILES,Mtb RmlCD inh,Mtb RmlCD inh retest
COC(=O)Nc1nnc(COc2cccc(C)c2)s1,39,8
Nc1cc(N)nc(SCC(=O)Nc2ccccc2N2CCOCC2)n1,32,-5
O=C(COc1ncnc2sccc12)NC1CCS(=O)(=O)C1 (stereo not drawn),49,5
Cc1cccc(-n2c(O)c(C=Nc3cc(O)ccc3C)c3ccccc3c2=O)n1,48,-5
Cc1ccc(C(=O)O)c(C(=O)Nc2nc(C)cs2)c1,44,4
CCOC(=O)C1CCCN(C(=O)c2cc(S(=O)(=O)N3CCCCC3)ccc2C)C1 (stereo not drawn),41,3
COc1ccc2[nH]c(=O)c(CN(Cc3cccs3)C(=S)NCC3CCCO3)cc2c1 (stereo not drawn),32,-3
Cc1ccc(S(=O)(=O)Oc2ccc(/C=C(/NC(=O)c3ccccc3)C(=O)O)cc2)cc1,39,7
CCCCCCc1cc2cc(C(=O)Nc3cccc(OC)c3)c(=O)oc2cc1O,61,18
Cc1cc(NS(=O)(=O)c2ccc(NC(=O)CSc3nc4ncc(Cl)cc4[nH]3)cc2)nc(C)n1,83,4
CCOc1ccc(C(CC(=O)O)NC(=O)C(Sc2ccccc2)c2ccccc2)cc1 (stereo not drawn),40,-23
CC(c1ccco1)N(C(=O)c1ccccc1NS(=O)(=O)c1ccc(Cl)cc1)c1ccccn1 (stereo not drawn),44,-1
CC1CCCCN1Cc1ccc(Cl)nc1 (stereo not drawn),40,-7
c1ccc(-c2ccccc2OCCOCCN2CCCCC2)cc1,33,-12
Cc1cc(OC(=O)c2c(F)cc(F)cc2F)nc(C)n1,34,-26
O=C(Nc1cccc(F)c1)c1cc(S(=O)(=O)NCCC2=CCCCC2)ccc1F,66,2
COc1cc(C(=O)Nc2ccc3c(c2)Cc2cc(NC(=O)c4cc(OC)c(OC)c(OC)c4)ccc2-3)cc(OC)c1OC,62,-14
CCOc1ccc(N2CC(C(=O)Nc3cc(C)on3)CC2=O)cc1 (stereo not drawn),89,4
O=[N+]([O-])c1ccc(O)c(/C=N/Nc2ccccn2)c1,32,-7
COc1ccc(NC(=S)NCC(O)c2ccccc2)c(OC)c1 (stereo not drawn),32,10
COC(=O)CC1SC(=O)NC1=Nc1cccc(C)c1 (stereo not drawn),37,-25
COc1cccc(NC(=O)C(Sc2nc3ccccc3c(=O)n2CC(C)C)c2ccccc2)c1 (stereo not drawn),46,-2
O=S(=O)(NC1CCN(Cc2ccccc2)CC1)c1ccc(Cl)cc1,31,6
CC(C)(C)NC(=O)C(=O)NC(=O)c1c(F)cccc1Cl,65,-16
O=C(CSc1nnc(NC(=O)c2ccccc2F)s1)Nc1ccccc1F,36,-16
CCOC(=O)c1ccc(S(=O)(=O)NNC(=O)c2ccc3c(c2)nc(C)n3CC)cc1,33,8
CCC1=Nc2cc(C(=O)NCc3ccco3)ccc2Sc2ccc(C)cc21,66,10
O=C(Nc1ccccc1)OC1CCC2CC1CCC2OC(=O)Nc1ccccc1 (stereo not drawn),37,-23
O=C(C1CCCCC1)N1CCN(c2ccnc3cc(Cl)ccc23)CC1,49,5
CCCCc1ccc(NC(=O)c2ccc(N(C)S(C)(=O)=O)cc2)cc1,49,2
Cc1cc(=O)[nH]c2cc(Cl)ccc12,90,5
CNC(=S)Nc1cccc(C(=O)O)c1,37,-5
C=CCn1c(Oc2cccc(C)c2)nc2c1c(=O)n(C)c(=O)n2C,80,3
CN(Cc1ccccn1)C(=O)CC1C(=O)NCCN1Cc1cccc(Oc2ccccc2)c1 (stereo not drawn),73,-11
CCCN1C(=O)c2cc(C(=O)Nc3ccccc3OC)ccc2C1Nc1ccccc1OC (stereo not drawn),46,4
O=c1cc(/C=C/c2c(F)cccc2Cl)[nH]c2ccccc12,95,8
C/C(=N\NC(=S)NCc1ccccc1)c1ccc(Br)cc1,60,-16
Nc1c(-c2ccc(Cl)cc2)cnn1-c1cc(C(F)(F)F)cc(C(F)(F)F)c1,65,-4
O=C(NCc1ccccc1)NC1CCS(=O)(=O)C1 (stereo not drawn),33,-14
Cc1ccc(NC(=O)CSc2nc3ccccc3c3nc(CCn4cncc4C)nn23)c(C)c1,37,-6
OCCCc1n[nH]c(=S)n1-c1ccccc1,40,-11
COc1ccc(NC(=S)Nc2ccc3nccnc3c2)cc1,66,8
CC(=O)Nc1ccc(C(=O)OCC(=O)Nc2ccc(N3CCOCC3)cc2)cc1,37,5
COc1ccc(N/C=C2\CCc3ccccc3C2=O)cc1,36,-12
CCN1C(=O)C(CC(=O)Nc2ccc(OC)cc2)N(CCc2ccc(OC)cc2)C1=S (stereo not drawn),50,0
Cc1nnc2sc(SCc3ccc(Cl)cc3)nn2c1=O,106,-4
O=[N+]([O-])c1ccc(CN2C=NS(=O)(=O)c3ccccc32)cc1,34,-14
O=C(NNC1=NCCC1)c1cccc(S(=O)(=O)N2CCCCC2)c1,66,-12

# Gathered by group: the compounds so far with a tert-butyl group
SMILES,Mtb RmlCD inh,Mtb RmlCD inh retest
CC(C)(C)NC(=O)c1ccccc1NC(=O)C1CCCO1 (stereo not drawn),40,-5
CC(C)(C)NC(=O)C(=O)NC(=O)c1c(F)cccc1Cl,65,-16

# The listing continues:
SMILES,Mtb RmlCD inh,Mtb RmlCD inh retest
COc1ccccc1C1/C(=C(/O)c2ccc(C)cc2)C(=O)C(=O)N1CCN1CCOCC1 (stereo not drawn),62,6
COc1cc(OC)c(OC)cc1/C=N/NC(=O)CCc1c(C)n[nH]c1C,44,5
CN(NC(=O)c1ccccc1)C1=NS(=O)(=O)c2ccccc21,65,-18
CC(C)CN1CCNC(=O)C1CC(=O)N(C)CC1CCOCC1 (stereo not drawn),44,-4
CCOC(=O)C1=C(C)NC(=S)NC1c1ccc(C)s1 (stereo not drawn),36,1
CCN(CC)Cc1cc(C(=O)O)c(C)o1,48,-3
CCCC[n+]1ccn(C2=C([O-])c3ccccc3C(=O)/C2=N\S(=O)(=O)c2ccc(Cl)cc2)c1,37,-8
CCOc1ccc(NC(=S)NNC(=O)c2ccc(Br)cc2)cc1,66,-18
Cc1cc(F)c(F)c(C(=O)N2CCN(C)CC2)c1Cl,104,-7
O=C(CSc1ccccc1)Nc1ccncc1,35,-3
c1ccc(-c2csc(N3CCSCC3)n2)cc1,105,-8
COc1ccc(NS(=O)(=O)c2ccc(N3CCCC3=O)cc2)cn1,41,2
CCOc1ccc(/C=C/C(=O)C(C(N)=O)=C2SCCS2)cc1,43,7

# This is a subset; the hit share may differ from the screen's.
